From PubChem
TRPML1 blocker: blocks the human TRPML1 channel | Q9GZU1 | TRPML1-inducible cells, Ca2+ dye fluorescence, FDSS; active compounds read low; inhibition of EC80 agonist-evoked calcium signal | activity change, negative = inhibition, % (test concentration not listed) | hit rate 0.02% among 390,000 | AID 624415; in the data active means activity change below about -50%; inconclusive means about -30% to -50%; inactive means above about -30%;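 note: stimulus is agonist 54-4 at its EC80 concentration; % is set by controls: 0 for no effect and ±100 for the full control effect; compound concentration not given in the record; the text of the record puts the active cut at -80%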
Target sequence (Q9GZU1 whole entry, looked up): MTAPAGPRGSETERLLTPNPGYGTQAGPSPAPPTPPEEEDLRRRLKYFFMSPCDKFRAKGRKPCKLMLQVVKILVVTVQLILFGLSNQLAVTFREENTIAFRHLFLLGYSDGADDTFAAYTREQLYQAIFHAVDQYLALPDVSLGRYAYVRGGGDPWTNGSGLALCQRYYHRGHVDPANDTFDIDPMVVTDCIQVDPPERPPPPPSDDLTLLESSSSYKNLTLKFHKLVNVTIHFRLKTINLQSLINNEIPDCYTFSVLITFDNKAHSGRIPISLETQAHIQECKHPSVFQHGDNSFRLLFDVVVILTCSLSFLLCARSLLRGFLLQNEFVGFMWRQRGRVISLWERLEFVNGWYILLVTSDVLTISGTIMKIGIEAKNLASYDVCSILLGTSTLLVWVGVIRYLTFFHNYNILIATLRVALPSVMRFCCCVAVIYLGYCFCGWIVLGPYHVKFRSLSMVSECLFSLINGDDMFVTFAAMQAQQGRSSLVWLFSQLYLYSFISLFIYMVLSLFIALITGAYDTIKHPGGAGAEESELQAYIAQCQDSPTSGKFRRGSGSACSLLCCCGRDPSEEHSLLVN
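TRPML1-DL cells, Tet-induced overnight (~16 h, 37 °C) at 1,500 cells/well, were loaded with Ca8 no-wash dye plus quencher for 45-90 min at room temperature. Compounds were pinned during FDSS kinetic reading; agonist 54-4 at EC80 (4 uM final) then added.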
ClpP mod: qHTS Assay for Activators of ClpP. ATP-dependent Clp protease proteolytic subunit (Bacillus subtilis (strain 168)), P80244. purified B. subtilis ClpP, FRET peptide cleavage, 20 min. Potency, µM (series often up to 57.5 µM), for inactives: top-dose activity change, negative = active. hit rate 1.9% among 340,000. AID 651965, 2013; active = well fitted falling curve with a large enough effect; inconclusive = small, poorly fitted or top-dose-only effect; inactive = no such curve, though single readings can be large or run the other way; note: potency is the fitted concentration of half-maximal effect; the source files actives as falling curves though it sought activators and does not explain the sign; nearly all actives have a fitted effect of over 65% in size; many hits overshoot -100%
Target sequence (P80244 whole entry, looked up): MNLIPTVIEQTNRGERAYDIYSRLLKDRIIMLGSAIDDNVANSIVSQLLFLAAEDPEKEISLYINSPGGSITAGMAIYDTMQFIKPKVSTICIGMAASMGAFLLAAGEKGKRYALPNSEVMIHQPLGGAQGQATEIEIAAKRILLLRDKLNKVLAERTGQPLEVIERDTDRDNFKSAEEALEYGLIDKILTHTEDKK
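FRET quenching reversal measured ClpP activation: 10 microg/mL B. subtilis ClpP at pH 8 with the FRET-FV decapeptide, read at 430 nm after 320 nm excitation. The 20-min minus 0-min signal was scaled between DMSO/no-enzyme wells and ADEP (5.8 microM final).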
* = called active by the depositor; ? = inconclusive. Not all compounds are listed. The share of hits here may be higher or lower than overall.

mol	TRPML1 blocker	ClpP mod
Cc1ccc(-n2ncc3c(N4CCC(C)CC4)ncnc32)cc1C	42	?
CC(=O)c1cccc(N(C(=O)Cn2nnc3ccccc32)C(C(=O)NCc2ccccc2)c2ccc(F)cc2)c1 (stereo not drawn)	-11	0.7%
O=C(c1ccc2c(c1)N(Cc1ccc(F)cc1)C(=O)c1ccccc1S2(=O)=O)N1CCCC1	-1	-0.9%
CCOc1ccccc1C1C(C(=O)Nc2ccccc2)=C(C)Nc2nc(SCC(=O)c3ccc(C)cc3)nn21 (stereo not drawn)	5	0.6%
CNC(=O)COc1ccc(Nc2nnc(-c3ccc(C)c(S(=O)(=O)NC(C)(C)C)c3)c3ccccc23)cc1	13	-4.1%
CCOc1ccc(-c2ccc(CO)o2)cc1N	-7	4.3%
CCOc1ccc(NC(=O)c2c(NCc3cc(OC)c(OC)cc3OC)sc3c2CCCC3)cc1	7	0.3%
Cc1cc(N(C)Cc2ccccc2)n2nc(-c3ccc(C(C)(C)C)cc3)nc2n1	51	-3.1%
COc1ccc(NC(=O)c2c(NCc3cccs3)sc3c2CCC(C)C3)c(OC)c1 (stereo not drawn)	-9	0.3%
Cc1ccc(NC(=O)Cn2c(-c3ccc4c(c3)OCO4)cn(-c3ccccc3)c2=O)cc1	-9	?
CCOc1ccc2nc(NC(=O)c3nc(SC)ncc3Cl)sc2c1	19	0.9%
COc1ccc(-c2cc(C(=O)Nc3cc(C)ccc3O)no2)cc1OC	13	-1.2%
CS(=O)(=O)c1cc(N2CCOCC2)ccc1CNC[C@H]1O[C@@H](n2cnc3c(=O)[nH]c(N)nc32)[C@H](O)[C@@H]1O	18	-11%
Cc1cc(C(=O)O)c2c(=O)n(C)c(=O)n(C)c2n1	16	?
CCC(=O)N1CCc2cc(Br)cc(S(=O)(=O)N3CCCC(C(=O)Nc4ccc(OC)cc4OC)C3)c21 (stereo not drawn)	3	0.7%
CCOc1ccc(C(=O)Nc2ccc(-c3cc4ccccc4oc3=O)cc2)cc1Br	39	5.5%
O=C(NCC(c1cccs1)S(=O)(=O)c1cccs1)c1ccc(F)c(F)c1 (stereo not drawn)	-25	0.2%
CCc1ccccc1NC(=O)CSc1nccn1C	-15	-3.1%
CCCN1CCN(c2nnc(-n3cccc3C(=O)Nc3ccccc3C(F)(F)F)s2)CC1	-28	1.3%
Cc1cccc2c1-c1sc(C(=O)Nc3ccc(F)cc3F)cc1CO2	19	3.8%
Cc1nn(-c2ccc(F)cc2)c(-n2cccc2)c1C(=O)N1CCN(c2ccccc2)CC1	-1	1.3%
Nc1c(C(=O)Nc2ccccc2Cl)nnn1Cc1cccc(Cl)c1	7	4.2%
COc1ccc(OC)c(NC(=O)C2CCCN(S(=O)(=O)c3ccc4[nH]c(=O)ccc4c3)C2)c1 (stereo not drawn)	-11	-4.3%
Cc1c(Cl)cccc1NC(=O)c1ncn(-c2ccccc2)n1	14	0.5%
O=C(CN1C(=O)CC(c2ccccc2)Sc2ccccc21)Nc1cccc(Cl)c1 (stereo not drawn)	8	-22%

The final 7 records of the section above open the next one:
mol	TRPML1 blocker	ClpP mod
CCCN1CCN(c2nnc(-n3cccc3C(=O)Nc3ccccc3C(F)(F)F)s2)CC1	-28	1.3%
Cc1cccc2c1-c1sc(C(=O)Nc3ccc(F)cc3F)cc1CO2	19	3.8%
Cc1nn(-c2ccc(F)cc2)c(-n2cccc2)c1C(=O)N1CCN(c2ccccc2)CC1	-1	1.3%
Nc1c(C(=O)Nc2ccccc2Cl)nnn1Cc1cccc(Cl)c1	7	4.2%
COc1ccc(OC)c(NC(=O)C2CCCN(S(=O)(=O)c3ccc4[nH]c(=O)ccc4c3)C2)c1 (stereo not drawn)	-11	-4.3%
Cc1c(Cl)cccc1NC(=O)c1ncn(-c2ccccc2)n1	14	0.5%
O=C(CN1C(=O)CC(c2ccccc2)Sc2ccccc21)Nc1cccc(Cl)c1 (stereo not drawn)	8	-22%
CCc1ccc(NC(=O)c2cnn(-c3c(C)cccc3C)c2C2CCNCC2)cc1	4	1.4%
Cc1ccc(-n2nc(C(=O)N3CCCCC3)c(=O)n(C)c2=O)cc1	-17	-1.5%
Cc1c(C(=O)Nc2ccc(F)c(F)c2)oc2ccc(S(=O)(=O)N3CCC4(CC3)OCCO4)cc12	-11	0.9%
Cc1cccc(N2CCN(C(=O)C3CCCN(S(=O)(=O)c4ccc5c(c4)oc(=O)n5C)C3)CC2)c1C (stereo not drawn)	17	-1.0%
CCOc1ccc(CCNC(=O)c2cc3c(=O)[nH]c4ccc(C)cc4c3s2)cc1OCC	-9	4.3%
COc1cccc(N2CCN(C(=O)C3CCN(S(=O)(=O)c4cccc5nonc45)CC3)CC2)c1	-5	-1.2%
CCCNC(=O)C1(C)CCCN(Cc2cccc(C(F)(F)F)c2)C1 (stereo not drawn)	0	2.9%
Cc1cc(NC(=O)Nc2nnc(N3CCCCCC3)s2)ccc1Br	-16	0.7%
COc1cc(OC)c(NC(=O)Cn2c(=O)cc(C(F)(F)F)c3c(C)nn(C)c32)cc1Cl	-1	-0.6%
CCN(C(=O)CSc1nc(-c2ccc(C(C)C)cc2)no1)c1cccc(C)c1	48	-2.1%
O=C(NCCc1ccccc1)c1ccc(CSc2nc3ccncc3n2Cc2cccc(F)c2)cc1	-6	-24%
C=Cc1ccc(Cn2c(=O)cc(C)c3c(C)nn(-c4ccccc4)c32)cc1	2	-13%
CC1(C(=O)NS(=O)(=O)c2ccc3c(c2)CCO3)CCN1C(=O)C1(c2ccc(Cl)cc2)CC1 (stereo not drawn)	5	5.1%
Cc1ccc(OCC(=O)Nc2ccc(OCc3cc(=O)n4ccsc4n3)cc2)cc1	-5	-1.4%
Cc1ccc(OCc2nnc(-c3ccccc3)o2)cc1	13	0.4%
O=C(Nc1nonc1-c1ccc(Br)cc1)c1ccco1	12	0.6%
COc1c(Cl)cc(Cl)cc1C(=O)Nc1cccc(-c2nc3ccccc3o2)c1C	-13	-9.0%
COc1ccccc1/C=C(\C#N)c1nc(-c2cc3ccccc3oc2=O)cs1	-6	-8.8%
CCOc1ccc(OCC(=O)Nc2c(C(=O)Nc3ccc(C)cc3)oc3ccccc23)cc1	-11	3.6%
CCOc1ccc(CNS(=O)(=O)c2ccc(-c3cc(C(F)(F)F)on3)s2)cc1	-2	0.0%
COc1ccc(Cl)cc1C(=O)Nc1nnc2n1CCS2	18	-0.5%
COCCNC(=O)CN1C(=O)CCn2nc(-c3cn(C)c4ccccc34)cc21	-15	-11%
O=C(Nc1ccc(C(=O)OCc2cc(=O)n3c4c(sc3n2)CCCC4)cc1)c1ccc(Cl)cc1	-13	2.9%
CCOc1ccc(NC(=O)N2CCN(c3ccc(Cl)c(Cl)c3)CC2)cc1	16	1.0%
Cc1ccc(CNC(=O)c2nnc(Cc3cccc(F)c3)o2)cc1	50	-0.6%

(more compounds)
smiles,TRPML1 blocker,ClpP mod
Cc1ccc(N(CC(=O)N2CCN(c3cccc(Cl)c3)CC2)S(=O)(=O)c2c(C)noc2C)cc1,-6,-0.9%
O=C(Nc1sc2c(c1C(=O)NCC1CCCO1)CCCC2)c1cc(=O)c2ccccc2o1 (stereo not drawn),8,-1.1%
CCOc1ccc(-c2cc(C(=O)NC(C)c3ccccc3)c3ccccc3n2)cc1 (stereo not drawn),-2,4.1%
COc1ccc(-c2nsc(NC(=O)c3oc4ccccc4c3C)n2)cc1,-9,-9.5%
Cc1ccc(-n2c(C)cc(C(=O)C(=O)Nc3ccccc3)c2C)c(C)c1,4,-2.3%
Cc1ccccc1NC(=O)c1ccc(F)c(S(=O)(=O)N(C)Cc2ccccc2)c1,15,-1.5%
Oc1ccc(-c2nc3ccc(Cl)cn3c2Nc2ccc(Cl)cc2)cc1,-5,3.8%
CCOc1ccc(CCNC(=O)CCCc2nnc3n(C)c(=O)c4sccc4n23)cc1OCC,-1,2.5%
CC1CN(C(=O)N2CCC(C(=O)NCCC3=CCCCC3)CC2)c2ccccc2O1 (stereo not drawn),-17,-1.6%
CC(C)c1ccc(N2C(=O)N(Cc3ccccc3Cl)c3ccccc3S2(=O)=O)cc1,-6,-1.3%
CC(=O)NCCNc1nc2c(S(=O)(=O)c3ccc(C)c(C)c3)nnn2c2ccc(Cl)cc12,5,3.9%
O=C(Cn1ncc2c3ccccc3n(Cc3ccc(Cl)cc3)c2c1=O)NC1CCCCCC1,-2,-5.9%
Cc1cccc(-c2noc(-c3ccc(N4CCCC4)c([N+](=O)[O-])c3)n2)c1,-4,0.8%
COc1cc(OC)c(NC(=O)C2CCN(C(=O)c3sc4nc[nH]c(=O)c4c3C)CC2)cc1Cl,-16,-1.2%
CCC(=O)C1=C(c2ccccc2)N(C(=O)CC)n2c(nnc2C2CCCCC2)S1,26,-2.0%
Cc1cccn2c(=O)c(C(=O)N3CCN(c4ccc(Cl)cc4)CC3)cnc12,49,-5.4%
COc1ccc(-c2noc(CNC(=O)COc3cccc(C)c3C)n2)cc1,-1,-6.7%
COc1cc(Cl)c(C)cc1NC(=O)CNC(=O)Cn1ccc2ccccc2c1=O,-17,-6.8%
Cc1ccc(CNC(=O)CN2C(=O)CSc3ccc(S(=O)(=O)N4CCCC4)cc32)cc1,1,0.4%
Cc1cc(C)c(NC(=O)Cn2nnc(-c3nc(-c4ccccc4)no3)c2N)c(C)c1,-6,3.5%
COc1ccc2oc(=O)c(-c3cn4c(n3)sc3cc(F)ccc34)cc2c1,-10,-5.3%
O=C(CN1C(=O)COc2ccc(Cl)cc21)Nc1ccc(F)cc1,-8,-0.8%
CC(C)(C)Cc1c(C2CCCCC2)nc2ccc(Cl)cn12,6,-16%
COc1ccc(-n2c(=O)c3c4c(sc3n(Cc3ccc(C)cc3C)c2=O)CCC4)c(OC)c1,-16,-2.9%
CCc1cccc(NC(=O)CN(C)S(=O)(=O)c2ccc3c(c2)CCCN3C(C)=O)c1,18,2.0%

New compounds follow.
smiles,TRPML1 blocker,ClpP mod
COc1ccccc1CNS(=O)(=O)c1cc(Br)cc2c1N(C(=O)C1CC1)CC2,-14,0.8%
CCOc1ccc(NC(=O)Cn2ncc3c2-c2cc(C)ccc2OC3)cc1,-7,0.2%
CC(=O)C1=C(c2cccc([N+](=O)[O-])c2)N(C(C)=O)n2c(nnc2-c2ccc(C)cc2)S1,-14,1.7%
COC(=O)c1ccc(NC(=O)Cn2c(=O)oc3ccccc32)cc1,48,-0.1%
Cc1ccc(-n2c(=O)c3oc4ccccc4c3n(Cc3cccc(F)c3)c2=O)cc1C,23,-1.5%
O=C(Nc1ccc(C(F)(F)F)cc1)C1(c2cccs2)CCOCC1,7,2.0%
Cc1cc(C)c2c(n1)SCCN2C(=O)Nc1ccc(C(=O)Nc2cc(Cl)ccc2C)cc1,-26,-1.0%
Cc1cccc(N(C)c2nc3ccc(C)cc3n3cnnc23)c1,3,-1.7%
Cc1ccc(N2CCN(Cc3nnc(-c4ccccc4F)o3)CC2)c(C)c1,1,-1.5%
CS(=O)(=O)Nc1cccc(-c2cc(NC=O)c3ncc(-c4ccc(F)c(Cl)c4)n3c2)c1,-11,-25%
CC(Nc1ccc(-c2nc(-c3ccncc3)no2)cc1[N+](=O)[O-])c1ccccc1 (stereo not drawn),22,-0.5%
C=C(C)CSc1nc2sc3c(c2c(=O)n1Cc1ccccc1)CC(C)(CC)OC3 (stereo not drawn),-2,-19%
COc1cccc(NC(=O)C(=O)NCCc2csc(-c3ccc(C)cc3)n2)c1,-24,-3.1%
CCOc1ccccc1NC(=O)c1cn(C2CCCC2)c(=O)c2c1c1ccccc1n2C,5,31%
CCc1ccc(-c2nn(CC(=O)Nc3ccccc3)c3c2cnc2ccc(F)cc23)cc1,-5,-7.8%
CCc1cccc(C)c1NC(=O)Cn1nc(C)c2nn(-c3ccc(Cl)cc3)c(C)c2c1=O,-6,1.0%
Cc1cc(C)cc(NC(=O)C2CCCN(S(=O)(=O)c3cccc4nsnc34)C2)c1 (stereo not drawn),-4,1.1%
COc1ccccc1N1CCN(S(=O)(=O)c2c(C)sc3ncn(CC(=O)N(C)c4ccc(C(C)C)cc4)c(=O)c23)CC1,6,-0.4%
Cn1c(=O)c2c(nc(SCC(=O)Nc3ccc(F)cc3)n2Cc2ccccc2F)n(C)c1=O,-7,-1.7%
COc1ccc(-n2nc(C(=O)NCCc3cccc(C)c3)c3c4ccccc4n(C)c3c2=O)cc1Cl,19,-13%
COc1ccc(CCNC(=O)c2ccc3c(c2)N(Cc2cccc(Cl)c2)C(=O)c2ccccc2S3=O)cc1OC (stereo not drawn),-23,-3.8%

Two consecutive entries from above, quoted:
smiles,TRPML1 blocker,ClpP mod
COc1ccc(-n2nc(C(=O)NCCc3cccc(C)c3)c3c4ccccc4n(C)c3c2=O)cc1Cl,19,-13%
COc1ccc(CCNC(=O)c2ccc3c(c2)N(Cc2cccc(Cl)c2)C(=O)c2ccccc2S3=O)cc1OC (stereo not drawn),-23,-3.8%
